High-throughput results as filed in PubChem.
RE007 growth inh – less growth of the S. pombe RE007 Vpr strain | AID 651644 | S. pombe RE007 Vpr strain, BacTiter-Glo ATP luminescence, 24 h; control for the full effect not named in the record | 360,000 compounds, 0.21% hits | Potency, µM (doses to about 92.2 µM), without a hit: at the top dose activity change, negative = less growth; active = well fitted falling curve with a large enough effect; inconclusive = small, poorly fitted or top-dose-only effect; inactive = no such curve, though single readings can be large or run the other way;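 further: on the % scale 0 is the no-effect control and ±100 the full control effect; nearly all actives have a fitted effect of over 50% in size; the assay follows cell death caused by Vpr and the record does not say whether a fall means rescue or toxicity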
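Fission yeast RE007 carrying one integrated HIV-1 vpr copy, seeded at OD 0.01 in PMG+AL medium with 23 nL pinned compound. Grown 24 h at 30 degrees; viability read by BacTiter-Glo luminescence after 5 min.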
Cruzain inh Det – blocks cruzain activity in presence of Triton detergent. P25779. purified cruzain, Z-FR-AMC fluorescence, 0.01% Triton. Potency, µM, for the others: max response, negative = inhibition, hits mostly inhibitors. 200,000 compounds, 0.43% hits;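 further: plate controls were neutral wells for no effect and buffer without enzyme for full effect; nearly all actives have a fitted effect of over 40% in size; top concentration of the series not given in the record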
Target sequence (P25779 123-467 limits assumed): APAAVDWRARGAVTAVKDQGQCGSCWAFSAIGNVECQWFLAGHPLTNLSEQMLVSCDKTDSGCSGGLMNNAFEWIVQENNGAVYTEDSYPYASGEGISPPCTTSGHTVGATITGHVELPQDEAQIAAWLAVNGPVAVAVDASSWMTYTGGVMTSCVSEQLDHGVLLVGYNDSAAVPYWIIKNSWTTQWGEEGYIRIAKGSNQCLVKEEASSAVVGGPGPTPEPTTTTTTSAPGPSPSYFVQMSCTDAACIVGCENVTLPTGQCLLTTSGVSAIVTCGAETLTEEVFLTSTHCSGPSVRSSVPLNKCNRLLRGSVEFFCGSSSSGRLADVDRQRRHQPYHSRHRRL
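Purified cruzain (1.5 nM final) was preincubated with compounds for 15 min at room temperature in 100 mM sodium acetate pH 5.5, 5 mM DTT, 0.01% Triton X-100. Reaction started with 2 uM Z-FR-AMC; AMC fluorescence change over 60 s gave activity.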
Cruzain inh noDet – inhibitors of Trypanosoma cruzi cruzain without detergent | purified cruzain, Z-FR-AMC fluorescence, no detergent | AID 1476 | 200,000 compounds, 2.3% hits | P25779 | Potency, µM, inactives show max response, negative = inhibition, actives largely listed as inhibitors;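 further: plate controls were enzyme without inhibitor for no effect and buffer without enzyme for full effect; nearly all actives have a fitted effect of over 40% in size; top concentration of the series not given in the record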
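Detergent-free condition (0.00005% Triton X-100) in acetate buffer pH 5.5 with DTT. 1.5 nM enzyme and compound were pre-mixed 15 min, then 2 uM Z-FR-AMC substrate added; reaction progress from fluorescence change between first and third reads (60 s).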
Lassa entry inh – inhibitors of Lassa virus binding or cell entry. Lassa virus pseudotype entry inhibition, cell reporter; control for the full effect not named in the record. Potency, µM (top dose mostly 37.9 µM), for inactives: at the top dose activity change, negative = inhibition, hits mostly inhibitors. 300,000 compounds, 1.2% hits; active means well fitted inhibition curve with a large enough effect; inconclusive means small, poorly fitted or top-dose-only effect, or effect the other way; inactive means flat fitted curve, though single readings scatter; tested in HEK293 cells; further: on the % scale 0 is the no-effect control and ±100 the full control effect; nearly all actives have a fitted effect of over 50% in size; luciferase read-out
NS1 inh – inhibitors of influenza NS1 protein function; S. cerevisiae slowed by influenza A NS1, growth recovery by OD600; Potency, µM (titrated, usually from 46.1 µM), for the others: at the highest dose activity, positive = more growth; 270,000 compounds, 0.4% hits; active means well fitted rising curve with a large enough effect; inconclusive means small, poorly fitted or top-dose-only effect; inactive means no such curve, though single readings can be large or run the other way; further: nearly all actives have a fitted effect of over 50% in size
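In this qHTS, NS1 from influenza A is expressed in budding yeast, where it slows growth. Cells are switched from glucose to 2% galactose medium (pH 6.0, -URA), treated with compound, and growth recovery is read at OD600.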
MARV entry inh – blocks Marburg virus binding to or entry into cells | Marburg virus pseudotyped entry inhibition, cell reporter; control for the full effect not named in the record; about a third of the inactives were read at about 46 µM | Potency, µM (doses to about 37.8 µM), for inactives: at the top dose activity change, negative = inhibition, usual class: inhibitors | 300,000 compounds, 1.8% hits | AID 540276; active = well fitted inhibition curve with a large enough effect; inconclusive = small, poorly fitted or top-dose-only effect, or effect the other way; inactive = flat fitted curve, though single readings scatter; tested in HEK293 cells; about a fifth of its hits are not listed in these tables; further: on the % scale 0 is the no-effect control and ±100 the full control effect; luciferase read-out
SARS PLP yeast – inhibitors of SARS-CoV papain-like protease in yeast. 330,000 compounds, 0.19% hits. S. cerevisiae expressing SARS-CoV PLpro, growth rescue; control for the full effect not named in the record. Potency, µM (titrated, usually from 32.9 µM), for inactives: at the highest dose activity, positive = growth rescue; active means well fitted rising curve with a large enough effect; inconclusive means small, poorly fitted or top-dose-only effect; inactive means no such curve, though single readings can be large or run the other way; further: 0% is about no effect; nearly all actives have a fitted effect of over 55% in size; growth read by luminescence after 48 h
2A StopGo – FMDV 2A StopGo reporter, luciferase signal; human cells with a luciferase reporter of 2A StopGo recoding; control for the full effect not named in the record; Potency, µM (titrated, usually from 57.9 µM), inactives show at the highest dose signal change, negative = less light; 410,000 compounds, 1.2% hits; AID 1159524; active = well fitted falling curve with a large enough effect; inconclusive = small, poorly fitted or top-dose-only effect; inactive = no such curve, though single readings can be large or run the other way; tested in HEK293T cells; further: on the % scale 0 is the no-effect control and ±100 the full control effect; nearly all actives have a fitted effect of over 45% in size; luciferase light after 4 h
An asterisk follows results filed as active; ? = inconclusive; . = not tested or not shown; & = joins results of further samples; [ ] = dose if it differs, or a comment. Unless noted, the call rests on the fitted dose curve; in most records, active means well fitted curve in the direction sought with a large enough effect; inconclusive means small, poorly fitted or top-dose-only effect, or another doubt; inactive means no such curve, though single readings can be large; an effect the other way counts as inactive or inconclusive. Potency means the concentration at half of the fitted maximal effect.

Each structure is followed by: SARS PLP yeast	Lassa entry inh	MARV entry inh	RE007 growth inh	2A StopGo	Cruzain inh Det	NS1 inh	Cruzain inh noDet
> COc1ccc(OCc2nc(C#N)c(N3CCN(c4ccc(OC)cc4)CC3)o2)cc1
  -27%	.	.	3%	-14%	-5.5%	9%	3%
> COc1ccccc1Cn1c(CNS(=O)(=O)c2ccc(C(C)C)cc2)nc2cccnc21
  .	3%[46.1 µM]	.	.	46%[activator]	-3.4%	.	-22%
> CCN(CC)C(=O)c1ccccc1NC(=O)c1ccccc1C
  4%	7%	?	-1%	-3%	.	.	.
> O=C(CC(Nc1ccc(Cl)cc1)C(=O)O)c1ccccc1 (centres undefined)
  2%	4%	?	-16%	-10%	-6.1%	-5%	-27%
> Cc1cc(=O)oc2cc(NC(=O)CC3(CC(=O)O)CCCC3)ccc12
  0%	14%	?	34%	11%	.	2%	.
> CCOc1ccc(OCC)c(S(=O)(=O)NCc2cccnc2)c1
  3%	1%	-10%	24%	95%[activator]	-1.1%	-2%	-3%
> COc1ccc(NC(=O)C2CCCN(S(=O)(=O)c3cccc4nonc34)C2)c(OC)c1 (centres undefined)
  -1%	0%&11%	9%&28%	1%	6%	2.8%	5%	3%
> CC(=O)Nc1ccc(S(=O)(=O)Nc2cccc(C(=O)Nc3ccccc3C(=O)O)c2)cc1
  -1%	.	.	-8%	0%	.	23%	.
> O=C(c1nsnc1-c1ccccc1O)N1CCCCC1
  -5%	1%	?	0%	29%	-0.4%	-22%	7%
> COCCCNC(=S)NCCNc1nc2cc(C)c(C)cc2cc1C#N
  1%	3%[46.1 µM]	?	-10%	?	.	.	.
> COCCNC(=O)Cn1c(=O)n(CCCCCC(=O)NCc2ccccc2Cl)c(=O)c2sccc21
  .	19%[46.1 µM]	-13%[46.1 µM]	.	-12%	-10%	.	14%
> Cc1nc(-c2ccc(S(=O)(=O)N3CCN(c4cccc(C)c4C)CC3)cc2)co1
  -4%	?	?	-5%	-19%	.	-3%	.
> CC(C)(C)C(=O)N1c2ccccc2CCc2ccccc21
  2%	1%	-1%	-1%	-10%	.	22%	.
> Cc1noc(C)c1CSc1nnc2ccc3ccccc3n12
  1%	-3%	3%	?	8%	1.4%	-9%[9.22 µM]	3%
> CC1(C)C2([N+](=O)[O-])CN3CC1([N+](=O)[O-])CN(C2)C3c1ccccn1 (centres undefined)
  -1%	-2%	8%	-12%	-3%	.	-8%	.
> Cc1onc(-c2ccccc2Cl)c1C(=O)Nc1ccccc1O
  -3%	-19%	?	5%	?	.	-10%	.
> CCc1nnc(NC(=O)[C@@H](NS(=O)(=O)c2ccc3c(c2)OCCO3)C(C)C)s1
  .	?	1%[46.1 µM]	-6%	-6%	.	.	.
> O=C(Nc1ccc(S(=O)(=O)N2CCOCC2)cc1)c1ccc2c(c1)OCO2
  -1%	-22%	5%	6%	-20%	.	-3%	.
> O=c1cc[nH]c2ccc(OC(F)(F)F)cc12
  0%	-2%	2%[46.1 µM]	11%	58%[activator]	.	0%	.
> Cc1ccc(C2CC(C(F)(F)F)n3nc(C(=O)NCC4CCCO4)cc3N2)cc1 (centres undefined)
  0%	.	0%	.	.	1.2%	-61%	?

Additional compounds
Each structure is followed by: SARS PLP yeast	Lassa entry inh	MARV entry inh	RE007 growth inh	2A StopGo	Cruzain inh Det	NS1 inh	Cruzain inh noDet
> Cc1ccc(-n2c(=O)c3sccc3n(CC(=O)NCc3ccco3)c2=O)cc1F
  -3%	-19%	?	-5%	-13%	11%	5%	-30%
> CCN1C(C(=O)c2ccccc2)=C(OC(=O)c2ccc(OC)cc2)c2ccccc2S1(=O)=O
  .	-20%[46.1 µM]	2%[46.1 µM]	.	-6%	-4.0%	.	?
> CCn1c(-c2cc(OC)ccc2OC)csc1=Nc1c(C)n(C)n(-c2ccccc2)c1=O
  -19%	-1%	?	0%	?	-1.7%	-9%	2%
> CCn1c(SCC(=O)Nc2ccc(C(C)=O)cc2)nc2nc3c(cc2c1=O)COC(C)(C)C3
  1%	.	.	9%	36%[activator]	.	-2%	.
> Cc1ccc(S(=O)(=O)N2CC=C(N)N2)cc1
  .	-4%[46.1 µM]	29%	4%	-24%	.	.	.
> CCOC(=O)C=C(C(=O)OCC)C(=O)OCC
  -1%	.	.	11%	?	.	3%	.
> CCOC(=O)c1sc(NC(=O)CSc2nc3c(c(=O)n2-c2ccccc2)SCC3)c(C(=O)OCC)c1C
  -4%	-6%	24%	.	.	-3.4%	-11%	-26%
> O=C(c1ccccc1)c1ncc(C(F)(F)F)cc1Cl
  2%	-21%	7%	-13%	-1%	-1.4%	26%	-10%
> CCc1nn(CC(=O)N2CC(C)CC(C)C2)c(=O)c2cccn12 (centres undefined)
  -7%	.	.	1%	-1%	.	0%	.
> CC(=O)Nc1ccc(S(=O)(=O)Nc2ccc(F)c([N+](=O)[O-])c2)cc1
  0%	-6%	-4%[46.1 µM]	13%	6%	.	8%	.
> CC(=O)Nc1ccc(Nc2c3c4c(cccc4n(C)c2=O)C(=O)c2ccccc2-3)cc1
  -8%	-3%	-40%	-13%	?	-12%	14%	?
> COc1ccc(CC(=O)NCC2CCCN(Cc3ccc(OC)cc3F)C2)cc1 (centres undefined)
  ?	.	.	4%	-3%	.	12%	.
> O=C(COc1cccc2ccccc12)N/N=C/c1ccccc1OCc1ccc(C(=O)O)cc1
  5%	-21%[46.1 µM]	?	12%	-19%	.	.	.
> COc1ccc(NC(=O)C2CCN(S(=O)(=O)c3ccc(C)cc3)CC2)cc1OC
  -1%	-11%	-5%	1%	4%	3.8%	1%	5%
> CC1CC(=O)N(CC(=O)NCc2ccco2)c2ccccc2S1 (centres undefined)
  -1%	2%	9%	-9%	-1%	3.7%	-2%	4%
> O=C1CC(NCCN2CCOCC2)C(=O)N1Cc1ccc(N2CCCC2=O)cc1 (centres undefined)
  1%	?	0%	-16%	11%	2.5%	-9%	-8%
> COc1ccc2[nH]c3c(c2c1)[C@@H]1CCN2C(=O)CCC[C@H](C3)[C@H]12
  9%	.	.	-16%	1%	.	-1%	.
> O=S(=O)(c1ccccc1)N1CC=C(c2ccccc2)CC1
  0%	1%[46.1 µM]	8%[46.1 µM]	-14%	-18%	.	.	.
> CC(=O)Nc1ccc(NC(=O)C(C)OC(=O)c2ccc(OCc3c(C)noc3C)cc2)cc1 (centres undefined)
  0%	-3%	-6%	7%	-2%	-7.5%	-3%	?
> O=C(Nc1ccc(OC(F)(F)F)cc1)c1cccn(Cc2ccccc2Cl)c1=O
  .	-17%[46.1 µM]	.	.	?	-0.7%	.	-4%

Copied from the list:
For SARS PLP yeast, `COc1ccc2[nH]c3c(c2c1)[C@@H]1CCN2C(=O)CCC[C@H](C3)[C@H]12` shows 9%
For NS1 inh, `CCOC(=O)C=C(C(=O)OCC)C(=O)OCC` shows 3%

Other entries follow:
Each structure is followed by: SARS PLP yeast	Lassa entry inh	MARV entry inh	RE007 growth inh	2A StopGo	Cruzain inh Det	NS1 inh	Cruzain inh noDet
> CCOc1ccc(C(=O)CSCCC(=O)O)cc1
  -4%	?	?	4%	?	.	.	.
> CCOC(=O)N1CCN(c2c(N3CCN(c4ccc(OC)cc4)CC3)c(=O)c2=O)CC1
  -1%	.	4%	6%	-20%	-2.6%	3%	-5%
> Cc1cccc(C2c3[nH]c4ccccc4c3CCN2C(=O)CN2CCOC2=O)n1 (centres undefined)
  1%	-9%[46.1 µM]	-25%[46.1 µM]	-11%	-16%	.	0%	.
> Cc1cccc(NC(=S)NCCc2c[nH]c3ccccc23)c1
  29%	?	?	0%	13%	-7.6%	-25%	7%
> C=CCN(C)CCCNC(=O)/C=N/O
  ?	.	.	.	.	-2.9%	-3%	-1%
> O=C(/C=C/c1cnc2ccccc2n1)NC1CCCCCC1
  -5%	13%	?	14%	36%[activator]	-5.1%	-13%	-5%
> CCn1c(SCCC(C)C)nnc1-c1c[nH]c2ccccc12
  -14%	.	.	2%	?	-1.7%	-66%	-11%
> Cc1nn(CC(=O)NCCc2ccc(Cl)cc2)c(=O)c2cccn12
  -5%	.	.	-3%	-7%	.	-10%	.
> CCOC(=O)Cc1csc(/N=C/c2c(O)n(-c3ccccc3C(F)(F)F)c(=O)c3ccccc23)n1
  1%	.	0%	10%	-20%	-6.7%	0%	7%
> FC(F)(F)c1cccc(OCC2CNC(=S)O2)c1 (centres undefined)
  7%	.	.	-5%	-13%	.	-3%	.
> COc1cc(-c2noc(C3CC(=O)N(c4cc(C)ccc4C)C3)n2)cc(OC)c1OC (centres undefined)
  .	-29%[46.1 µM]	.	.	0%	-3.2%	.	?
> Cc1cc(C)n(-c2nc3ccccc3nc2N2CCC(C)CC2)n1
  -43%	19%	10%	-14%	-20%	-1.9%	-65%	-5%
> Cc1ccc(C(=O)N2c3nc(-c4ccco4)nn3C3(CCCCC3)[C@@H]3CCCC[C@@H]32)cc1
  .	10%[46.1 µM]	-24%[46.1 µM]	.	-28%	-4.9%	.	2%
> CCn1nc(C(=O)NNC(=O)C(Cc2ccccc2)NC(N)=O)c2ccccc2c1=O (centres undefined)
  1%	3%[46.1 µM]	-6%[46.1 µM]	10%	-2%	.	.	.
> COc1ccc(CC(=O)NC(C)c2ccc3ccccc3c2)cc1 (centres undefined)
  -8%	.	.	-2%	-19%	.	4%	.
> O=C(CSc1nc2scc(-c3ccco3)c2c(=O)n1-c1ccccc1)N1CCOCC1
  1%	4.1µM*	?	-8%&4%	-21%	-4.6%	-3%	?
> Cc1ccccc1NC(=O)NCc1ccccn1
  .	?	-2%[46.1 µM]	-5%	9%	.	.	.
> COc1ccc(C(=O)Nn2cnnc2)cc1
  6%	11%	5%	-2%	-6%	6.4%	6%	0%
> C/C(=N\OCC(=O)Nn1c(=O)[nH]c2ccccc2c1=O)c1ccccc1
  16%	-5%	-6%	-7%	0%	6.1%	0%	-7%
